MgrA DNA FP: S. aureus MgrA activity modulators, primary screen, biochemical, S. aureus Newman, fluorescence polarization. inhibition, %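 (about 10 µg/mL by stock and volumes)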. MgrA-DNA binding. actives 0.13% (n = 84,000);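 active = above 50% in either of two replicates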;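 also: 0% = protein plus DNA without compound and 100% = DNA alone without protein; higher means less MgrA bound to DNA so lower polarization; one replicate is shown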
S aureus helic: inhibitors of S. aureus replicative helicase, primary screen, biochemical, fluorescence unwinding readout. replicative DNA helicase (DnaC/DnaB), Staphylococcus aureus. actives 0.05% (n = 120,000). AID 485395, 2010. purified S. aureus helicase, fluorescence unwinding assay; about half of the hits fall short of the stated cut. inhibition, %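 (tested at about 80 µM)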;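 active = both duplicates at 50% or more, or one of them with a favoured structure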;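 also: 0% = mean of negative control wells and 100% = mean of positive control wells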
* hit, by the source's call; nt = no result given. An excerpt; the hit share may differ from the screen's.

Structure,MgrA DNA FP,S aureus helic
CCOc1ccc2nc(NC(=O)Nc3ccc(F)cc3)sc2c1,0.6,11.0
CCOC(=O)Nc1cccc(Nc2ccccc2)c1,nt,-25.0
Cn1c(=O)c2cnc(-c3ccccc3)nc2n(C)c1=O,-0.1,12.0
C=CCn1c2ccccc2c2nnc(SCCC)nc21,nt,-9.0
CC(=O)Nc1ccc2c(c1)nc1n2CCN(Cc2ccccc2)C1,nt,13.0
COc1ccc(C2C(C#N)=C(N)OC3=C2C(=O)CC(C)(C)C3)cc1COc1cccc(Cl)c1 (stereo unspecified),0.6,nt
CCN(CC)CC(=O)Nc1scc2c1c(=O)oc1ccccc12,nt,32.0
COc1cc2c(cc1NC(=O)CCC1CCCCC1)oc1ccccc12,0.9,15.0
COC(=O)c1ccc(COc2coc(CN3c4ccccc4CC3C)cc2=O)cc1 (stereo unspecified),nt,6.0
O=C(Nc1cc(C(F)(F)F)cc(C(F)(F)F)c1)C(F)(F)F,2.1,nt
O=C(O)CCc1ccc(-c2cccs2)n1CC(=O)Nc1ccccc1,1.1,9.0
CCCCCCCCCCCCCCCCCCc1ccc(C(=O)/C=C/C(=O)O)cc1,2.3,nt
Cc1ccc(C(=O)N2CC(=O)NC(=O)C2)cc1,0.9,-3.0
CC(=O)N1CN(Cc2ccccc2)Cc2c1sc1c2CCCC1,-1.5,2.0
CCOC(=O)C1=C(C)NC(SCC(=O)O)=C(C#N)C1c1ccco1 (stereo unspecified),nt,6.0
CC(C)C(NC(=O)C1CCCCC1)C(=O)NCc1ccco1 (stereo unspecified),nt,4.0
OC(CNCC1CCCO1)Cn1c2ccccc2c2ccccc21 (stereo unspecified),-0.8,10.0
Cc1nn(C(=O)Nc2ccccc2)c(C)c1Oc1ccccc1,0.0,nt
CC1SC(=N)N(c2ncc(Cc3ccccc3Cl)s2)C1=O (stereo unspecified),1.0,1.0
COc1ccc(OC)c(C(O)c2nc3ccccc3n2C(C)C)c1 (stereo unspecified),nt,4.0

Remaining list, next part.
Structure,MgrA DNA FP,S aureus helic
COc1ccc(-c2cc(C(F)F)n3ncc(C(=O)N4C(C)CCCC4C)c3n2)cc1 (stereo unspecified),nt,-32.0
COc1cc(C)nc(N(Cc2ccccc2)S(=O)(=O)c2ccccc2)n1,1.7,nt
O=C(O)CCn1[nH]c(=O)c2ccccc2c1=O,nt,-3.0
CC(=O)Nc1cccc(Cn2cccn2)c1,1.6,-7.0
O=C1CC(N(O)c2ccccc2)C(=O)N1Cc1ccccc1 (stereo unspecified),nt,-17.0
Cc1cccc(NC(=O)C(CC(C)C)NC(=O)C2CCC(C)CC2)n1 (stereo unspecified),3.0,-2.0
CCCCn1c(=O)c2ccccc2n2c(SCC(=O)N3CCN(c4ccccc4)CC3)nnc12,nt,-14.0
CCOc1ccc(-c2nc(C#N)c(N(C)C)o2)cc1,0.6,13.0
CCc1ccc(-c2csc(NC(=O)c3cccs3)n2)cc1,0.6,1.0
O=C(Cn1cnc2sccc2c1=O)NC(=O)NCc1ccco1,nt,-17.0
N#Cc1ccc(COC(=O)Cn2nc(-c3ccccc3)oc2=O)cc1,nt,7.0
C[N+](C)(C)CC(=O)N1CCN(c2ccc3ccccc3n2)CC1,nt,-4.0
O=C(Cc1c(F)cccc1Cl)NCCCn1ccnc1,0.0,-13.0
CCOc1ccc(C2=NC(c3ccc(OC)cc3)NC(c3ccccc3O)C2)cc1 (stereo unspecified),2.0,-2.0
C=CCNCCOc1ccc(Cl)c(Cl)c1,-5.0,1.0
CC1CCc2nc(NN)nc(C(F)(F)F)c2C1 (stereo unspecified),0.4,13.0
Nc1snnc1-c1ccc(C(F)(F)F)cc1,-0.6,nt
CC(Oc1ccccc1)C(=O)Nc1ccc(Cl)cc1 (stereo unspecified),0.4,-16.0
CN(C)CCNC(=O)c1cn(-c2ccccc2)nc1-c1cccnc1,-0.8,5.0
COc1ccc(CC(=O)NCc2ccco2)cc1OC,nt,2.0

Continued, starting with the last 5 of the part before.
Structure,MgrA DNA FP,S aureus helic
CC1CCc2nc(NN)nc(C(F)(F)F)c2C1 (stereo unspecified),0.4,13.0
Nc1snnc1-c1ccc(C(F)(F)F)cc1,-0.6,nt
CC(Oc1ccccc1)C(=O)Nc1ccc(Cl)cc1 (stereo unspecified),0.4,-16.0
CN(C)CCNC(=O)c1cn(-c2ccccc2)nc1-c1cccnc1,-0.8,5.0
COc1ccc(CC(=O)NCc2ccco2)cc1OC,nt,2.0
COc1ccc(N=C2N=C(N)c3ccccc32)cc1,-0.2,6.0
O=C(O)/C=C/C(=O)NCc1ccc(-c2cccs2)s1,-3.8,nt
O=C1CCCC2=C1C(c1ccc(O)cc1)c1c(ccc3ccccc13)N2 (stereo unspecified),nt,8.0
CCC(C)NC(=O)C(Cc1ccccc1)n1cccc1 (stereo unspecified),nt,11.0
CCCCc1nc(-c2ccc(Br)cc2)no1,nt,10.0
C=CCn1cnc2scc(-c3ccc(C)cc3)c2c1=O,-3.9,6.0
Cc1ccc(I)c(C(=O)O)c1,-0.3,nt
Cc1csc2nc(O)c(C(=O)NCCN(C)C)c(=O)n12,nt,-20.0
O=c1cc(-c2ccccc2)oc2ccc(-c3nn[nH]n3)cc12,-1.6,nt
O=C(NCCC1=CCCCC1)c1cc2c(s1)-c1ccccc1SC2,1.9,5.0
CN(C)S(=O)(=O)c1ccc(N2CCCC2)c(C(=O)OCc2cn3cc(Cl)ccc3n2)c1,nt,-2.0
NS(=O)(=O)c1ccc(NC(=S)NC(=O)C2CCCCC2)cc1,0.7,7.0
CCOC(=O)NC(=S)N1CCSCC1,-2.2,nt
COC(=O)Nc1cn(Cc2cccnc2)c(=O)c2ccccc12,-1.9,nt
Cc1ccc(C(=O)OCC(=O)NN2C(=O)NC3(CCC(C)CC3)C2=O)cc1 (stereo unspecified),nt,-10.0
CN1CCN(Cn2c(O)c(N=NC(=O)c3ccc(Br)cc3)c3cc(Br)ccc32)CC1,-1.2,6.0
COc1cccc(C(=O)N/C(=C\c2cccnc2)C(=O)N2CC3CC(C2)c2cccc(=O)n2C3)c1 (stereo unspecified),nt,2.0
O=C1C=CC(=O)N1c1ccc(F)c(Cl)c1,5.1,-1.0
CC(=O)NCCSc1cc(C)c(Cl)cc1C,0.1,nt
CCOC(=O)C(CC)Sc1nnc(-c2c[nH]c3ccccc23)n1C (stereo unspecified),nt,-2.0

Additional entries follow:
Structure,MgrA DNA FP,S aureus helic
COCCNC(=O)c1cc(C(=O)c2cc(Cl)ccc2O)coc1=N,nt,-13.0
O=C(O)CCCN1C(=O)COc2ccc(Cl)cc21,5.8,0.0
O=C1C(Oc2ccc(Cl)cc2)C(c2ccc3c(c2)OCO3)N1CC1CCCO1 (stereo unspecified),nt,15.0
COc1cccc(OC)c1C(=O)N1CCNCC1,-0.8,18.0
COC(=O)C1=C(C)N=C2SC(C#N)=C(N)N2C1c1cccs1 (stereo unspecified),-0.2,nt
Cc1cc(C(C)(C)C)cc(C)c1COC(=O)C1CCC(=O)N1 (stereo unspecified),1.6,-8.0
CC1=CCC(C(=O)O)C(C(=O)Nc2nc3ccc(S(C)(=O)=O)cc3s2)C1 (stereo unspecified),0.1,-15.0
Brc1ccc(CN2CCN(Cc3ccccc3)CC2)s1,-2.2,5.0
Cc1ccc(O)c(C(=O)c2cnn(C(=O)c3cccc(S(=O)(=O)N4CCCC4)c3)c2)c1,nt,-8.0
CCOC(=O)c1c(C)[nH]c(C)c1C(=O)COC(=O)CCC1CCCC1,nt,-4.0
CCN(C(=O)CSc1nnc(-c2ccccc2)c(-c2ccccc2)n1)C1CCS(=O)(=O)C1 (stereo unspecified),nt,-7.0
O=C(NCc1ccccc1)c1cnc2n(c1=O)CCS2,nt,15.0
C=CCn1c(C)cc(C(=O)COC(=O)c2ccc(S(=O)(=O)N3CCCC3)cc2)c1C,nt,-17.0
CCC1(CC)Cc2ccccc2C(N)=C1C#N,1.3,-4.0
O=C(C1CCCN1)N1CCOCCOCCOCC1 (stereo unspecified),-2.2,14.0
CCN(CC)S(=O)(=O)c1cc(-c2nn(C)c(=O)c3ccccc23)ccc1C,0.3,1.0
CS(=O)(=O)N(Cc1nc(-c2cccs2)no1)c1ccc(F)cc1,0.8,-6.0
COc1ccc(OCC(=O)NC(C)(C)C)cc1,-0.1,-3.0
Cc1nn(-c2ccccc2)c(C)c1-c1nc2ccccc2[nH]c1=O,nt,-8.0
O=C(O)CSCC(=O)N1CCCN(c2ccc(C(F)(F)F)cn2)CC1,1.1,nt

Quoted at random: five records from the list
Structure,MgrA DNA FP,S aureus helic
CCOC(=O)c1c(C)[nH]c(C)c1C(=O)COC(=O)CCC1CCCC1,nt,-4.0
O=C(O)CCCN1C(=O)COc2ccc(Cl)cc21,5.8,0.0
C=CCn1c(C)cc(C(=O)COC(=O)c2ccc(S(=O)(=O)N3CCCC3)cc2)c1C,nt,-17.0
CS(=O)(=O)N(Cc1nc(-c2cccs2)no1)c1ccc(F)cc1,0.8,-6.0
COc1ccc(OCC(=O)NC(C)(C)C)cc1,-0.1,-3.0

Other records
Structure,MgrA DNA FP,S aureus helic
COc1ccc(-c2nnc3sc(C(C)N4C(=O)c5ccccc5C4=O)nn23)cc1 (stereo unspecified),nt,8.0
Nc1nc2ncc(CNc3ccc(C(=O)N[C@@H](CCC(=O)O)C(=O)O)cc3)nc2c(=O)[nH]1,1.8,nt
CCOC(=O)C(Cc1c[nH]c2ccccc12)NC(=O)COc1cc(C)ccc1C(C)C (stereo unspecified),-0.9,nt
COc1cccc(C(=O)Nc2nc(SCc3ccc(Cl)cc3)n[nH]2)c1,-0.1,nt
O=C1CC(C(=O)NC2CCCCC2)C2(CCCCC2)O1 (stereo unspecified),-0.3,4.0
CCCc1ccc(NC(=S)OCC)cc1,2.8,nt
Cn1c(=O)[nH]c2c(c1=O)C(c1ccc(F)cc1)C1=C(COC1=O)N2 (stereo unspecified),nt,-15.0
Cc1nc(N)nc2c1C(=O)CC(c1ccccc1)C2 (stereo unspecified),-2.7,19.0
CN(C)C1(CN)CCCCC1,1.4,2.0
Cc1ccsc1C=Nc1cccc2c(=O)[nH][nH]c(=O)c12,5.7,22.0
O=C(c1ccco1)N1CCN(c2ncnc3sc4c(c23)CCCC4)CC1,-1.8,13.0
Cc1ccc(Cn2c(/N=C/c3ccc(Br)cc3)nc3ccccc32)cc1,3.2,4.0
CCOc1ccccc1C1CC(=O)Nc2c1c(=O)n(C)c(=O)n2C (stereo unspecified),0.7,10.0
CC(C)N(C(=O)CSc1nnc(COc2ccc(Cl)cc2Cl)o1)c1ccccc1,-0.9,nt
CC(=O)OCC(=O)[C@@]1(O)CCC2C3CCC4=CC(=O)C=CC4(C)C3C(=O)CC21C (stereo partly specified),nt,8.0
c1ccc2c(c1)ccc1ncccc12,0.3,nt
Cc1csc(=Nc2c(C)n(C)n(-c3ccccc3)c2=O)n1Cc1ccccc1,nt,-12.0
O=C(CSc1ccc(Cl)cc1)N1CCN(c2ncccc2C(F)(F)F)CC1,-2.4,nt
COc1ccc(C(=O)N2CCN(S(=O)(=O)c3cc(Cl)ccc3OC)CC2)cc1,-1.5,4.0
Oc1ccc2ccccc2c1/C=N/c1nccs1,23.4,-51.0

The results go on.
Structure,MgrA DNA FP,S aureus helic
CC1=NN(c2ccccc2)C(=O)C1C1C(=O)N(c2ccccc2)N=C1C (stereo unspecified),nt,-19.0
CCOC(=O)C1=C(CC)NC2=C(C(=O)CC(C)(C)C2)C1c1cc(OC)ccc1OC (stereo unspecified),nt,7.0
NC1=C(c2ccc(F)cc2)C(=O)CS1,5.6,6.0
O=C1CCCC2=C1C(c1ccccc1F)CC(=O)N2c1ccc(Br)cn1 (stereo unspecified),0.3,-4.0
NC(=S)c1cc2ccccc2oc1=O,5.0,-96.0
N#C/C(=C/c1cccn1-c1ccc(Br)cc1)C(=O)NCc1ccco1,2.6,2.0
CC(C)(NS(=O)(=O)c1cccs1)C(=O)O,-1.1,-1.0
COc1ccc(C(=O)Cn2c(-c3cccnc3)ccc(C#N)c2=O)cc1,1.9,0.0
CS(=O)(=O)N(CC(O)Cn1cc(/C=N/O)c2ccccc21)c1ccc(Cl)cc1 (stereo unspecified),nt,8.0
CCCc1c(C(=O)Nc2ccnn2C)cnn1-c1ccccc1,1.8,nt
Cc1ccc(CCNC(=O)C2CCCN(Cc3nc(-c4ccc(Cl)cc4)oc3C)C2)cc1 (stereo unspecified),-3.0,10.0
COc1ccc(CNCC(O)CSc2ccc(OC)cc2)cc1 (stereo unspecified),-3.0,nt
Oc1ccc2ccccc2c1/C=N/NC1=NCCC1,nt,6.0
Cc1nc(NCCNC(=O)c2ccco2)c2c(C)c(C)sc2n1,3.4,-10.0
Cc1ccc(C(=O)N/N=C/c2c[nH]c3ccccc23)cn1,nt,18.0
N/C(CC(=O)Nc1ccc(F)cc1)=N\OC(=O)c1cccs1,-1.1,nt
